NPYLR7 agonist: mosquito NPYLR7 agonism; 270,000 tested, 0.15% active; HEK293T NPYLR7/Galpha15, GCaMP6s calcium fluorescence; activation, % at 10 µM; AID 1259423; in the data active = activation above about 40%;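 also: 0% = vehicle and 100% = reference agonist at the receptor; some compounds past the cut are filed as inactive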
NPYLR7 agonist max-min: recorded beside NPYLR7 agonist, whose call it bears; activation, %; measured here: Max-Min RFU normalised activation; some inactives read as strong as hits;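 span of the calcium signal over five minutes; 0% = vehicle and 100% = native peptide agonist; compound fluorescence can raise it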
Numbers without * were called inactive. Some of the compounds tested, so the mix of outcomes need not match the whole.

SMILES	NPYLR7 agonist	NPYLR7 agonist max-min
CCNC(=O)O[C@H]1C(=O)N(C)C2(CCN(C(=O)OCC)CC2)[C@@H]1C(=O)NC	32.2	35.6
CC(C)NC(=O)N1CCN(Cc2nc3ccccc3s2)CC1	-1.4	-2.4
CCOC(=O)C1CCN(C(c2cccc(Cl)c2)C2Sc3nc(CC)nn3C2=O)CC1 (stereo not drawn)	-0.5	10.1
Cc1ccc(CN(Cc2ccccc2)CC(C)O)s1 (stereo not drawn)	26.6	28.0
Cc1ccc(S(=O)(=O)c2c(C)nn(C(C)(C)C)c2OC(=O)CC(C)C)cc1	1.5	14.8
CC(=NNC(=S)NC1CCCCC1)c1ccc(C)o1	-3.4	-7.6
COc1cccc(COc2coc(CN3CCCN(S(=O)(=O)c4c(F)c(Br)cc(F)c4Br)CC3)cc2=O)c1	-4.1	-3.6
Cc1nc2n(n1)CCCC2N (stereo not drawn)	-13.3	-13.2
CCn1ccnc1CN1CCOC2(COCCN(C(=O)c3ccccc3)C2)C1 (stereo not drawn)	10.3	6.8
Cn1c(C2CCS(=O)(=O)C2)nn(CN2CCCc3cc(F)c(F)cc32)c1=S (stereo not drawn)	12.1	11.2
CCCCNC(=O)c1ccc2nc(CC)c(N(C)Cc3cccs3)n2c1	9.9	-1.3
CCc1c2ccc(C)n2cc[n+]1CC(=O)c1ccccc1	-15.2	-22.4
CCc1cc(CN(C)Cc2ccc(C(=O)Nc3nccn3C)cc2)on1	-4.0	-2.3
Cc1ccc(-n2c(SCc3nc(C(=O)N4CCN(c5ccccc5F)CC4)cs3)nnc2-c2cccnc2)cc1	9.6	6.3
NC(=O)c1ccc(N2CCN(Cc3ccc(-c4ccccn4)cc3)CC2)nc1	-1.5	-2.6
NS(=O)(=O)c1ccsc1C(=O)N1CCC2(CCCO2)CC1	9.8	9.0
CCN1CCN(C(=O)c2ccc(CSc3nnc(-c4ccc(C)cc4)n3-c3ccc(OC)cc3)cc2)CC1	2.8	7.9
CCOC(=O)CCC(=O)N1CCN(C(=O)c2cc(-c3cccc(OC)c3)n(-c3ccccc3F)c2C)CC1	-14.3	-18.6
CCCCC(=O)Nc1cccc(C(=O)N(CC)C2CCOC(C)(C)C2)c1 (stereo not drawn)	22.5	11.6
CCCCNC(=O)C1(C)CCCCN1C(=O)c1c(Cl)cccc1Cl (stereo not drawn)	2.8	1.1
CCN(CC(=O)N1CCc2sccc2C1c1ccccc1C)C(=O)C(Cl)Cl (stereo not drawn)	-4.3	2.7
CC(=NNc1nc(C)cc(C)n1)c1ccc(C)o1	6.8	5.2
CN1CC(=O)N2[C@H](c3ccc4c(c3)OCO4)c3[nH]c4ccccc4c3C[C@@H]2C1=O	-7.8	-13.0
COCCN1CCCC2(CCN(C(=O)c3cccc4nccnc34)C2)C1 (stereo not drawn)	8.9	3.5
COc1cc(CN2CCOc3ccc(CN4CCc5sccc5C4)cc3C2)cc2c1OCO2	4.8	-0.1
COc1cccc(-c2cnc(CNC(C)(C)c3nc(C)cs3)o2)c1	2.6	-11.9
Cc1ccc(CN(Cc2ccc(F)cc2)C(=O)CN(CCN2CCCC2)C(=O)C2CCCC2)s1	6.7	6.9
CC(=O)Oc1ccccc1Cn1c(C)c(C(=O)NCc2cccc(C)c2)sc1=O	7.0	1.7
CCCCC(=O)Nc1ccc(-n2nc(OCC(C)C)nc2-c2ccc(C)cc2)cc1	8.8	14.3
CCOC(=O)c1cc(-c2ccc(N3CCN(C(=O)c4cc(C)nn4C)CC3)cc2)n(-c2ccccc2OC)n1	20.9	11.8
NCC1CN(c2cccc(Cl)c2)C(=O)O1 (stereo not drawn)	-3.7	-7.1
CCCCCc1ccc(C(=O)Nc2ccc(N3CCCC3)c(C(=O)NCCCOCC)c2)cc1	-2.7	7.9
O=C(N1CCc2ccc(S(=O)(=O)N3CCC(n4c(=O)[nH]c5ccccc54)CC3)cc2C1)C(F)(F)F	-5.6	-12.4
C=C(Br)CNC(=O)[C@@H](NC(=O)N1CCCC1)C(C)CC (stereo partly drawn)	3.6	-0.2
Cc1nc(N(C)C2CCCCC2)ncc1C(C)NC(=O)c1ccoc1C (stereo not drawn)	3.4	1.0
CCCNCC(=O)N(CCc1ccc(OC)c(OC)c1)Cc1sccc1C	3.7	3.4
CC(c1ccccc1)N(Cc1cccc(Oc2ccccc2)c1)Cc1nc(C(=O)NCCN(C)C)co1 (stereo not drawn)	15.8	11.8
Cc1cccc(C)c1N=c1sc(C=C2C=Nc3ccccc32)c(O)n1-c1ccccc1	-5.0	-12.6
CC(C)CC(N)c1nc2ccccc2[nH]1 (stereo not drawn)	4.1	9.4
COc1ccccc1C(=O)C1CCCN(C(=O)c2ccccc2C(F)(F)F)C1 (stereo not drawn)	3.9	2.0
Cc1ccc(Cc2nc(N3CCN(S(=O)(=O)Cc4ccccc4)CC3)c3c(-c4cccnc4)noc3n2)cc1	16.3	2.2
O=C1COc2cc(S(=O)(=O)N3CCN(C(=O)C4CCC4)CC3)c(Cl)cc2N1	0.5	7.9
CCn1c(C2CCCN(Cc3cccn3-c3cccnc3)C2)nn(C)c1=O (stereo not drawn)	10.4	9.4
COC(=O)C1c2sc(=O)[nH]c2SC2C3CC(C4C(=O)N(CC(=O)O)C(=O)C34)C12 (stereo not drawn)	18.3	33.6
Cc1ccc(-c2cc(CN(CC(C)C)C(=O)NC(C)C)no2)c(C)c1	3.9	2.8

An excerpt of these results, with values under each structure.
Every second line gives: NPYLR7 agonist	NPYLR7 agonist max-min
> NS(=O)(=O)c1ccsc1C(=O)N1CCC2(CCCO2)CC1
    9.8	9.0
> CC(=O)Oc1ccccc1Cn1c(C)c(C(=O)NCc2cccc(C)c2)sc1=O
    7.0	1.7
> O=C1COc2cc(S(=O)(=O)N3CCN(C(=O)C4CCC4)CC3)c(Cl)cc2N1
    0.5	7.9
> COc1ccccc1C(=O)C1CCCN(C(=O)c2ccccc2C(F)(F)F)C1 (stereo not drawn)
    3.9	2.0

Additional results follow:
SMILES	NPYLR7 agonist	NPYLR7 agonist max-min
O=C(c1ccccc1C1CCNC1)N1CCN(c2ccc(F)cc2)CC1 (stereo not drawn)	-2.1	-0.4
COc1cc2ncc(=O)n(Cc3c(C)noc3C)c2cc1OC	2.4	11.4
CC(C)c1ccc(NC2CCCN(C(=O)C3=NN(C)C(=O)CC3)C2)cc1 (stereo not drawn)	2.5	-1.5
COc1ccc(Nc2nc(NCc3ccccc3)nc3nccnc23)cc1	1.7	5.2
CCOc1nc(-c2cccc(C(F)(F)F)c2)n(-c2ccc(NC(=O)/C=C/c3ccc([N+](=O)[O-])cc3)cc2)n1	16.2	23.8
COc1ccc(-c2nn(-c3ccccc3C)cc2CN(C)Cc2ccccn2)cc1F	1.8	0.1
COc1ccc(N=Nc2c(N)[nH]n(-c3ccccc3)c2=O)cc1	-8.5	-11.0
Cc1csc(Sc2nc3c(c(=O)[nH]c(=O)n3C)n2Cc2ccccc2Cl)n1	1.2	-1.4
O=C(Nc1cccc(-c2cccc(-c3ccc(F)cc3)n2)c1)c1ccc(C(F)(F)F)cc1F	-3.5	-7.2
COc1ccccc1-c1onc(C)c1C(=O)NCc1cccc(Cl)c1	1.7	-2.4
Cc1c(S(=O)(=O)CCNC(=O)Nc2ccccc2C#N)c2ccccc2n1Cc1ccc(F)cc1	3.1	7.7
CN1C(=O)c2cccc(NC(=O)c3ccc(S(=O)(=O)N(C)CC4CCCO4)cc3)c2C1=O (stereo not drawn)	-5.6	-4.5
CC1(C)OCC(CNC(=O)CNC(=O)c2ccc(NC3OC(C4COC(C)(C)O4)[C@@H]4OC(C)(C)O[C@H]34)cc2)O1 (stereo partly drawn)	-0.8	-0.2
COc1ccc(C2(C)N(O)C(C)C(c3cccs3)=[N+]2[O-])cc1 (stereo not drawn)	-5.4	-11.8
COc1ccc(-n2c(SCC(=O)c3ccccc3)nc3c(c2=O)SCC3)cc1	-1.0	67.1
Cc1sc2nc(CN3CCOCC3)nc(NC3CCN(S(C)(=O)=O)CC3)c2c1C	5.0	1.1
CCCc1[nH]n(-c2ccc(Cl)cc2)c(=O)c1/C=C1\NC(=O)N(Cc2ccc(C)cc2)C1=O	45.1*	57.6*
CC(=O)Nc1ccc(-c2ccc(S(=O)(=O)N(C)C(C)C)cc2)cc1	-0.3	-2.1
CCc1c(C)[nH]c(=S)c(C#N)c1C	-0.3	-1.5
CCCc1cc(C(=O)N2CCNCC2C(=O)NCc2ccccn2)ccn1 (stereo not drawn)	-2.4	-2.8
Nc1nc(Nc2ccccc2F)nc(NCc2ccco2)c1[N+](=O)[O-]	12.3	11.0
COCc1nc(-c2ccc(CN3CCN(C(=O)c4cccc5cc[nH]c45)CC3)cc2)no1	10.5	4.0
Cc1nc(C(=O)NCc2ccc(N(C)C)cc2)nn1-c1ccc(F)cc1	7.7	6.6
CCC(=O)Nc1ccc(S(=O)(=O)NCC2CCN(Cc3ccco3)CC2)c(C)c1	2.7	-0.1
O=C(C1CCC1)N(Cc1ccccc1Cl)CC1CC(c2ccc(F)cc2)=NO1 (stereo not drawn)	16.7	13.3
CCOc1ccc(-n2nnc(C(=O)OCc3ccccc3)c2C)cc1	8.2	-0.3
Cc1nnc(NC(=O)c2ccccc2[N+](=O)[O-])s1	-1.6	-4.9
COc1cccc(/C=C2/SC(=S)N(C(C)C(=O)O)C2=O)c1 (stereo not drawn)	-8.4	-18.3
CS(=O)(=O)c1ccc(CC(=O)N(Cc2ccccn2)c2nc3ccc(Cl)cc3s2)cc1	5.5	6.7
COc1ccc(-c2cc(=O)[nH]c(SCC(=O)Nc3oncc3-c3ccc(C)cc3)n2)cc1	0.7	-2.0

Reprinted at random: 5 entries already listed, in no set order.
SMILES	NPYLR7 agonist	NPYLR7 agonist max-min
CCn1ccnc1CN1CCOC2(COCCN(C(=O)c3ccccc3)C2)C1 (stereo not drawn)	10.3	6.8
CCCCCc1ccc(C(=O)Nc2ccc(N3CCCC3)c(C(=O)NCCCOCC)c2)cc1	-2.7	7.9
COc1cc2ncc(=O)n(Cc3c(C)noc3C)c2cc1OC	2.4	11.4
CCCc1[nH]n(-c2ccc(Cl)cc2)c(=O)c1/C=C1\NC(=O)N(Cc2ccc(C)cc2)C1=O	45.1*	57.6*
Cc1nc2n(n1)CCCC2N (stereo not drawn)	-13.3	-13.2

New compounds follow
SMILES	NPYLR7 agonist	NPYLR7 agonist max-min
CS(=O)(=O)Cc1ccc(N2CCC(N3CCCC3=O)CC2)nc1	-1.3	-4.8
COc1ccc2[nH]cc(C3CCN(C(=O)c4sc(Cl)c(Cl)c4Cl)CC3)c2c1	5.6	6.8
Cc1c(NC(=O)C(C)NCC2CCCO2)c(=O)n(-c2ccccc2)n1C (stereo not drawn)	0.6	1.9
NS(=O)(=O)c1cc([N+](=O)[O-])ccc1Nc1ccc(F)cc1	17.8	6.7
Cc1cccc(NC(=O)C(C)(C)Oc2ccc(Cl)cc2)c1	1.8	-1.4
Cc1ccc(Nc2cc([Se]c3ccccc3)c(N)c3c2C(=O)c2ccccc2C3=O)cc1	-2.4	-9.2
N#CCCN(Cc1ccc(F)cc1Cl)CC(F)(F)F	10.8	6.8
CN(C)CCCN(CC1CCN(C2Cc3ccccc3C2)CC1)C(=O)C1=CCCCC1	2.0	-2.6
COc1cc(C=CC(=O)N2CCCC2c2ccc3c(c2)OCCO3)cc(OC)c1 (stereo not drawn)	-0.5	8.5
CCCSc1ncccc1C(=O)NC1CCC(C(C)(C)C)CC1 (stereo not drawn)	-6.5	-12.8
CCC(=O)NCCc1csc2nc(-c3cccc(C)c3)nn12	2.3	0.5
O=C(c1cccs1)C1C(c2ccc(Cl)cc2)NC(=S)NC1(O)C(F)(F)F (stereo not drawn)	15.4	15.7
COCc1nnc(C(=O)N2CCCC(Cc3nc4ccccc4[nH]3)C2)o1 (stereo not drawn)	5.2	3.2
Cc1nc([N+](=O)[O-])c(Sc2nc3ccccc3n2C)n1Cc1ccccc1	-0.3	-0.4
O=C(C(=O)N1CCCC(N2CCN(c3cccc(C(F)(F)F)c3)CC2)C1)c1ccccc1 (stereo not drawn)	10.5	12.4
C=CCN1CCc2ccccc2N(CC(C)(C)O)CCC1=O	13.9	24.4
c1nc2nc3c(c(N4CCC(N5CCOCC5)CC4)n2n1)CCC3	3.8	0.5
Cc1ccnc2cc(Cl)c(Cl)cc12	-6.9	-9.1
CCCCCn1c(=O)c2c(nc3n2CC(C)CN3c2ccccc2)n(C)c1=O (stereo not drawn)	-0.6	4.6
CC(C)C(=O)Nc1ccc(N(C)C)c(CN(C(=O)c2cccc(F)c2)C2CCCCC2)c1	12.4	13.1
O=C(CN1C(=O)c2ccccc2C1=O)N1CCCC(CO)(CCOc2ccccc2)C1 (stereo not drawn)	7.5	-0.3
CCN(C(=O)COC1CCCC(C)C1)C(C)c1cccc(O)c1 (stereo not drawn)	-4.3	-3.7
COc1cccc(C(=O)NC(C(=O)N2CCCC2)C2CCN(S(=O)(=O)c3ccc(Cl)cc3)CC2)c1 (stereo not drawn)	13.5	11.7
CN(C(=O)C1CCN(Cc2cccc(Cl)c2)CC1)C(c1ccc(F)cc1)c1ccccn1 (stereo not drawn)	4.1	-9.8
CN(CC(=O)Nc1ccc(Cl)cc1F)Cc1ccccc1Cl	-3.8	-5.3
CCc1sc(C(=O)N2CCC(S(=O)(=O)NC)CC2)cc1C	1.4	-2.1
[O-][n+]1onc2c1CCc1c-2nn(-c2ccccc2)[n+]1[O-]	-8.5	-14.2
CCOC(=O)c1ccc(NC(=O)CSc2nc(=O)n(CCCN(CC)CC)c3c2CCC3)cc1	-0.7	5.9
CCOC1OC(COC(C)=O)C(OC(C)=O)C(OC(C)=O)C1NC(C)=O (stereo not drawn)	2.7	0.6

Screening results from PubChem.
